HCMV UL50-53 inh = inhibitors of HCMV UL50-UL53 interaction, biochemical, HTRF; HCMV UL50-UL53 nuclear egress complex (human cytomegalovirus); normalized percent inhibition; inhibition, % (concentration not given with the values); 0.15% of 190,000 active; AID 1918969, 2023;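 active means both replicates at 50% or more, plus weaker picks with an unusually low signal ratio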;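 further: stock transfer was 100 nL into about 20 µL; 0% = negative control wells and 100% = wells with untagged competitor protein; inactives centre near -12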
GIV-Gai inh = inhibitors of GIV peptide binding to Galpha-i3, primary screen, biochemical, fluorescence polarization, FITC-GIV GBA peptide, rat Galphai3; 90 min; hits give low values; scaled: aluminum fluoride 0%, vehicle 100%; percent of control (FP), % (test concentration not listed); 0.42% of 210,000 active; AID 1224905, 2016;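 active means replicate mean at 85% of control or lower, very high polarization wells dropped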;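 further: wells of about 15 µL received 100 nL stock; the first replicate is given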
Target sequence (P08753 whole entry, looked up): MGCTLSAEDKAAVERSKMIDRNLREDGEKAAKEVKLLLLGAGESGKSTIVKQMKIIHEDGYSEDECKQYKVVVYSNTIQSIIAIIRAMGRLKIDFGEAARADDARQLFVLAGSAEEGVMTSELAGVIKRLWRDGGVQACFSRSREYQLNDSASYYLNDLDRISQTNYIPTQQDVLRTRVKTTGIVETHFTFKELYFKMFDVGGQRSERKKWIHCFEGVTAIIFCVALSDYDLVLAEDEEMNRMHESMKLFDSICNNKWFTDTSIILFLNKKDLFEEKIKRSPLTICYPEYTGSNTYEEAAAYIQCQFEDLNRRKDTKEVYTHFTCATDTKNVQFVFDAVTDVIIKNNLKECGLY
Sa growth inh = S. aureus growth inhibition at 42 and 30 °C, primary screen, LtaS inhibitor project, RN4220, two temperatures; OD600, 20 h, 42 °C; hits give low values; relative growth, % (no concentration beside the values); 0.53% of 170,000 active;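 active means growth at 42 °C up to 50% and 20 or more points under that at 30 °C, or under 10% at both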;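 further: 300 nL library stock went into each well; scaled to the means of positive and negative controls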
Sa growth inh second temp = recorded beside Sa growth inh, whose call it bears; relative growth, %; measured here: growth at 30 °C;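 optical density after 20 h as mean of two plates; 100% = untreated growth and lower means inhibition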
Numbers without * were called inactive; & = joins results of further samples.

How did CCCNC(=O)NC1CCCc2ccccc21 (configuration not stated) do in these assays?
HCMV UL50-53 inh: 3; GIV-Gai inh: 100; Sa growth inh: 85; Sa growth inh second temp: 97

What do the screens show for `CCN(CC)C(CN)c1ccccc1` (configuration not stated)?
HCMV UL50-53 inh: 22; GIV-Gai inh: 100; Sa growth inh: 86; Sa growth inh second temp: 81

What do the screens show for `Cc1cccc(CN2C(=O)c3ccccc3Sc3ccc(C(=O)NC4CCCCC4)cc32)c1`?
GIV-Gai inh: 113; Sa growth inh: 128; Sa growth inh second temp: 104

Results for COc1ccc(N=C2SC(C(=O)Nc3ccc(F)cc3)CC(=O)N2Cc2ccc3c(c2)OCO3)cc1 (configuration not stated) ?
HCMV UL50-53 inh: -30; GIV-Gai inh: 107

What do the screens show for `Cc1nc(N)nc(COc2ccccc2)n1`?
HCMV UL50-53 inh: -3; GIV-Gai inh: 102; Sa growth inh: 105; Sa growth inh second temp: 94

How did O=C(O)C1CCN(Cc2ccc(Cl)cc2)CC1 do in these assays?
HCMV UL50-53 inh: 10; GIV-Gai inh: 98; Sa growth inh: 111; Sa growth inh second temp: 85

Results for O=C(CSc1ncccc1C(=O)Nc1ccnn1C1CCCCC1)Nc1ccc2c(c1)OCO2 ?
HCMV UL50-53 inh: -38; Sa growth inh: 91; Sa growth inh second temp: 90

Results for O=C(c1ccc(S(=O)(=O)N2CCOCC2)cc1)N(c1ccc(Cl)cc1)C1C=CS(=O)(=O)C1 (configuration not stated) ?
HCMV UL50-53 inh: -21; GIV-Gai inh: 96

Results for O=C(NCc1cccnc1)C1=Cc2ccccc2OC1 ?
HCMV UL50-53 inh: -90; GIV-Gai inh: 101

How did CC(=O)Nc1sc2c(c1-c1nc3ccccc3s1)CCCC2 do in these assays?
HCMV UL50-53 inh: -21; GIV-Gai inh: 103; Sa growth inh: 91; Sa growth inh second temp: 86

Reprinted from the results shown, three compounds:
Results for O=C(c1ccc(S(=O)(=O)N2CCOCC2)cc1)N(c1ccc(Cl)cc1)C1C=CS(=O)(=O)C1 (configuration not stated) ?
HCMV UL50-53 inh: -21; GIV-Gai inh: 96

Results for O=C(NCc1cccnc1)C1=Cc2ccccc2OC1 ?
HCMV UL50-53 inh: -90; GIV-Gai inh: 101

How did CC(=O)Nc1sc2c(c1-c1nc3ccccc3s1)CCCC2 do in these assays?
HCMV UL50-53 inh: -21; GIV-Gai inh: 103; Sa growth inh: 91; Sa growth inh second temp: 86

The list goes on.
How did COC(=O)c1cccc(N2C(=O)C3C(C2=O)C2(C)C=CC3(C)O2)c1 (configuration not stated) do in these assays?
HCMV UL50-53 inh: -22; GIV-Gai inh: 101

How did CN(C)CCOC(=O)c1sc2ccccc2c1Cl do in these assays?
HCMV UL50-53 inh: -10&-37; GIV-Gai inh: 97; Sa growth inh: 114; Sa growth inh second temp: 88

Results for CCOc1cccc(C(=O)N(Cc2ccc(N(C)C)cc2)CC2CCCO2)c1 (configuration not stated) ?
HCMV UL50-53 inh: -6; GIV-Gai inh: 105; Sa growth inh: 110; Sa growth inh second temp: 85

What do the screens show for `CCc1ccc(NC(=O)NCc2cc(=O)n3nc(-c4ccccc4)sc3n2)cc1`?
HCMV UL50-53 inh: 3; GIV-Gai inh: 105

Results for Cc1nnsc1C(=O)N=S(C)(C)=O ?
HCMV UL50-53 inh: -14; GIV-Gai inh: 99; Sa growth inh: 114; Sa growth inh second temp: 99

What do the screens show for `CCC(C)(C)NC(=O)CN1C(=O)CCc2cc(S(=O)(=O)N3CCCCC3C)ccc21` (configuration not stated)?
HCMV UL50-53 inh: 5; GIV-Gai inh: 105

What do the screens show for `CCOc1ccsc1-c1nnc(-c2ccc(Cl)cc2)o1`?
HCMV UL50-53 inh: 0; GIV-Gai inh: 98; Sa growth inh: 71; Sa growth inh second temp: 66

What do the screens show for `COc1ccccc1NC(=O)c1cc2c(=O)n(Cc3cccs3)ccc2nc1C`?
GIV-Gai inh: 100; Sa growth inh: 109; Sa growth inh second temp: 85

What do the screens show for `CNC(=S)N/N=C/c1ccc(-c2ccccc2C(=O)OC)o1`?
HCMV UL50-53 inh: -56; GIV-Gai inh: 104; Sa growth inh: 111; Sa growth inh second temp: 75

Results for COCC(C)n1c(C)cc(/C=C(\C#N)C(=O)O)c1C (configuration not stated) ?
HCMV UL50-53 inh: -10; Sa growth inh: 112; Sa growth inh second temp: 91

Sorted by SMILES length (lowest first): some entries from above.
How did CN(C)CCOC(=O)c1sc2ccccc2c1Cl do in these assays?
HCMV UL50-53 inh: -10&-37; GIV-Gai inh: 97; Sa growth inh: 114; Sa growth inh second temp: 88

What do the screens show for `CCc1ccc(NC(=O)NCc2cc(=O)n3nc(-c4ccccc4)sc3n2)cc1`?
HCMV UL50-53 inh: 3; GIV-Gai inh: 105

What do the screens show for `CCC(C)(C)NC(=O)CN1C(=O)CCc2cc(S(=O)(=O)N3CCCCC3C)ccc21` (configuration not stated)?
HCMV UL50-53 inh: 5; GIV-Gai inh: 105

Next entries.
What do the screens show for `C=CCn1c(SCC(=O)Nc2cc(C(=O)OC)cc(C(=O)OC)c2)nc2scc(-c3ccccc3)c2c1=O`?
HCMV UL50-53 inh: -16; GIV-Gai inh: 105

How did Cc1nn(Cc2ccc(C(=O)Nc3sc4c(c3C(=O)OC(C)C)CCCC4)o2)c(C)c1Cl do in these assays?
GIV-Gai inh: 101; Sa growth inh: 107; Sa growth inh second temp: 93

Results for CCOC(=O)c1cnn(C(=O)c2ccc(-n3c(C)ccc3C)cc2)c1N ?
HCMV UL50-53 inh: -30; GIV-Gai inh: 107; Sa growth inh: 90; Sa growth inh second temp: 85

Results for Cn1c(Cl)cnc1CSc1nnc(-c2ccc3c(=O)n4c(nc3c2)CCCCC4)o1 ?
HCMV UL50-53 inh: 11; Sa growth inh: 88; Sa growth inh second temp: 99

Results for CCOc1ccc(C2C(C(=O)Nc3ccc(Br)cn3)=C(C)NC3=C2C(=O)CC(C)(C)C3)cc1 (configuration not stated) ?
HCMV UL50-53 inh: -18; GIV-Gai inh: 101

What do the screens show for `CNC(=O)CN1C(=O)CSc2ccc(C(=O)N3CCCC3)cc21`?
HCMV UL50-53 inh: -28; GIV-Gai inh: 110

What do the screens show for `CCOc1ccc2[nH]c(=O)c(-c3nc4cccc(C)n4c3NCc3ccco3)cc2c1`?
HCMV UL50-53 inh: -40; GIV-Gai inh: 106; Sa growth inh: 99; Sa growth inh second temp: 89

How did Cn1nc(C(=O)Nc2ccccc2Br)cc1C(F)(F)F do in these assays?
HCMV UL50-53 inh: 6; GIV-Gai inh: 103

How did CC(/C=C/c1cccc(Oc2ccc(F)cc2)c1)N(O)C(N)=O (configuration not stated) do in these assays?
HCMV UL50-53 inh: -4&-13&-24; GIV-Gai inh: 98

How did c1ccc(-c2noc(COc3cccc4ccccc34)n2)cc1 do in these assays?
HCMV UL50-53 inh: -6; Sa growth inh: 111; Sa growth inh second temp: 94

Results for Cc1cc(F)ccc1S(=O)(=O)Nc1ccccc1C(=O)OCC(=O)NCc1ccco1 ?
HCMV UL50-53 inh: -30; Sa growth inh: 81; Sa growth inh second temp: 89

What do the screens show for `Cc1ccc(C(=O)OCC(=O)C(C)(C)C)cc1`?
HCMV UL50-53 inh: -29; Sa growth inh: 130; Sa growth inh second temp: 89

How did O=C(NCC1CCCO1)c1cn(-c2ccccc2)nc1-c1ccccc1 (configuration not stated) do in these assays?
HCMV UL50-53 inh: -16; GIV-Gai inh: 103

How did CC(C)=N/N=c1\scc(-c2ccccc2)n1Cc1ccco1 do in these assays?
HCMV UL50-53 inh: -7; GIV-Gai inh: 98; Sa growth inh: 88; Sa growth inh second temp: 77

Results for COc1ccccc1/C=C1/SC(=Nc2ccccc2Cl)NC1=O ?
HCMV UL50-53 inh: -11; GIV-Gai inh: 109

How did CCCn1c(=O)c2sccc2n2c(CCC(=O)N3CCN(c4ccccn4)CC3)nnc12 do in these assays?
HCMV UL50-53 inh: -12; GIV-Gai inh: 100

What do the screens show for `CN1c2ccccc2Oc2nnc(Cl)cc21`?
HCMV UL50-53 inh: 105*; GIV-Gai inh: 104; Sa growth inh: 98; Sa growth inh second temp: 56

Results for CCN(CC)CCOC(=O)c1ccc(NC(=O)CCCN2C(=O)/C(=C/c3ccccc3)SC2=S)cc1 ?
HCMV UL50-53 inh: -62; GIV-Gai inh: 103

Results for Cc1sc2ncn(CC(=O)NCCc3ccc(S(N)(=O)=O)cc3)c(=O)c2c1C ?
HCMV UL50-53 inh: -37; Sa growth inh: 77; Sa growth inh second temp: 94

How did COc1cc(OC)cc(C(C)(C)OC(=O)NN)c1 do in these assays?
HCMV UL50-53 inh: -14; GIV-Gai inh: 105; Sa growth inh: 114; Sa growth inh second temp: 90

How did Clc1cccc(-c2nc(N3CCC4(CC3)OCCO4)nc3c2COc2ccccc2-3)c1 do in these assays?
HCMV UL50-53 inh: -6; GIV-Gai inh: 100; Sa growth inh: 78; Sa growth inh second temp: 82

What do the screens show for `Cc1noc(CCn2c(=O)[nH]c3ccccc3c2=O)n1`?
GIV-Gai inh: 105; Sa growth inh: 99; Sa growth inh second temp: 84

What do the screens show for `Cc1ccccc1CSc1cn(CC(=O)N2CCCCCC2)c2ccccc12`?
GIV-Gai inh: 105; Sa growth inh: 143; Sa growth inh second temp: 87

Results for c1ccc(CN2CCN(CC3CCCCC3)CC2)cc1 ?
HCMV UL50-53 inh: -10; Sa growth inh: 95; Sa growth inh second temp: 84

How did O=C(O)C1CC(=O)N(c2cccc(Cl)c2)C1 (configuration not stated) do in these assays?
HCMV UL50-53 inh: -12; GIV-Gai inh: 104; Sa growth inh: 106; Sa growth inh second temp: 80

Results for Cc1ccc2c(CNCCc3ccccc3)c(C(=O)O)n(Cc3ccccc3C)c2c1 ?
GIV-Gai inh: 109; Sa growth inh: 108; Sa growth inh second temp: 98

Results for COc1nc2ccccc2nc1N1CCCC(C(=O)N2CCC(C)CC2)C1 (configuration not stated) ?
HCMV UL50-53 inh: 2; GIV-Gai inh: 96

Results for O=C(CN1C(=O)CC(c2ccccc2)S(=O)(=O)c2ccccc21)NC1CCCCC1 (configuration not stated) ?
GIV-Gai inh: 104; Sa growth inh: 90; Sa growth inh second temp: 88

What do the screens show for `CCOc1ccc(-c2cc(C(=O)Oc3cccc(Br)c3)no2)cc1`?
HCMV UL50-53 inh: 19; GIV-Gai inh: 100

What do the screens show for `Cc1noc(C)c1COC(=O)C1COc2ccccc2O1` (configuration not stated)?
HCMV UL50-53 inh: -14; Sa growth inh: 93; Sa growth inh second temp: 96

What do the screens show for `O=S(=O)(c1ccccc1)N(CCOc1ccccc1)Cc1ccco1`?
HCMV UL50-53 inh: -18; Sa growth inh: 89; Sa growth inh second temp: 89

What do the screens show for `CCCCSC1=NC(=O)CC(=O)N1`?
HCMV UL50-53 inh: -20; GIV-Gai inh: 101; Sa growth inh: 83; Sa growth inh second temp: 89

Results for CN(C)C(=O)C(OC(=O)c1cc(=O)[nH]c2ccccc12)c1ccccc1 (configuration not stated) ?
HCMV UL50-53 inh: -63; Sa growth inh: 105; Sa growth inh second temp: 87

How did COc1ccc(C(=O)NCCn2cc(SCC(=O)Nc3cccc(C)c3)c3ccccc32)cc1 do in these assays?
HCMV UL50-53 inh: -2; GIV-Gai inh: 100; Sa growth inh: 95; Sa growth inh second temp: 86

What do the screens show for `CC12CCCC(C(=O)NN)(CCC1)C2`?
HCMV UL50-53 inh: -46; GIV-Gai inh: 101; Sa growth inh: 89; Sa growth inh second temp: 92

How did Cc1ccc(-n2c(=O)c3c(c4cc(C)ccc4n3C)n(C)c2=O)cc1 do in these assays?
HCMV UL50-53 inh: -62; GIV-Gai inh: 109; Sa growth inh: 121; Sa growth inh second temp: 90

How did Cc1cc(C(=O)Nc2c(-c3ccccc3)c(C(F)(F)F)nn2C)no1 do in these assays?
HCMV UL50-53 inh: 4; GIV-Gai inh: 107; Sa growth inh: 109; Sa growth inh second temp: 98

How did Cc1cnc(NC(=O)CSc2ccccc2)s1 do in these assays?
HCMV UL50-53 inh: 12; Sa growth inh: 90; Sa growth inh second temp: 91

What do the screens show for `CC(=O)Nc1ccc(S(=O)(=O)N2CCN(Cc3nc4cccnc4n3-c3ccc(C)cc3)CC2)cc1`?
HCMV UL50-53 inh: -4; GIV-Gai inh: 110

What do the screens show for `CCn1c(SC)nnc1C1CCCN1C(=O)N(c1ccccc1)c1ccccc1` (configuration not stated)?
HCMV UL50-53 inh: 2; GIV-Gai inh: 105; Sa growth inh: 113; Sa growth inh second temp: 89

Results for CN(C)C(=S)NC(=O)c1ccccc1 ?
HCMV UL50-53 inh: -3; Sa growth inh: 99; Sa growth inh second temp: 93

How did Cc1ccc(S(=O)(=O)N2C(=O)CCC2C(=O)N2CCCC2)cc1 (configuration not stated) do in these assays?
HCMV UL50-53 inh: -3&-17; GIV-Gai inh: 100&101; Sa growth inh: 97; Sa growth inh second temp: 90

What do the screens show for `CC1=Nc2cc(C(=O)NCc3ccco3)ccc2Sc2ccc(C)cc21`?
HCMV UL50-53 inh: -10; GIV-Gai inh: 111; Sa growth inh: 84; Sa growth inh second temp: 80

Results for CCn1cc(S(=O)(=O)N2CCC(C(=O)O)CC2)cn1 ?
HCMV UL50-53 inh: -2; GIV-Gai inh: 98; Sa growth inh: 91; Sa growth inh second temp: 79

What do the screens show for `COc1ccc(C)cc1CCNCc1ccc(NC(C)=O)cc1`?
HCMV UL50-53 inh: -22; Sa growth inh: 72; Sa growth inh second temp: 95
